KCNQ2 pot – KCNQ2 (rat) channel potentiation; AID 2239; CHO-K1 KCNQ2, FluxOR thallium flux fluorescence; stronger effect = higher value; 310,000 compounds, 0.54% hits; B-score at 10 µM;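 active = fluorescence ratio B-score at least 3 SD of library B-scores, with initial fluorescence B-score within 3 SD, cut at about 5.3 in these data; same plate scores as AID 2156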;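 also: B-score of peak minus minimum over baseline fluorescence ratio after K+ and Tl+ stimulus; positive B-score means potentiation of KCNQ2 with more thallium influx and brighter signal; only the inactives scoring about 0 or higher are listed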
Target sequence (O88943 whole entry, looked up): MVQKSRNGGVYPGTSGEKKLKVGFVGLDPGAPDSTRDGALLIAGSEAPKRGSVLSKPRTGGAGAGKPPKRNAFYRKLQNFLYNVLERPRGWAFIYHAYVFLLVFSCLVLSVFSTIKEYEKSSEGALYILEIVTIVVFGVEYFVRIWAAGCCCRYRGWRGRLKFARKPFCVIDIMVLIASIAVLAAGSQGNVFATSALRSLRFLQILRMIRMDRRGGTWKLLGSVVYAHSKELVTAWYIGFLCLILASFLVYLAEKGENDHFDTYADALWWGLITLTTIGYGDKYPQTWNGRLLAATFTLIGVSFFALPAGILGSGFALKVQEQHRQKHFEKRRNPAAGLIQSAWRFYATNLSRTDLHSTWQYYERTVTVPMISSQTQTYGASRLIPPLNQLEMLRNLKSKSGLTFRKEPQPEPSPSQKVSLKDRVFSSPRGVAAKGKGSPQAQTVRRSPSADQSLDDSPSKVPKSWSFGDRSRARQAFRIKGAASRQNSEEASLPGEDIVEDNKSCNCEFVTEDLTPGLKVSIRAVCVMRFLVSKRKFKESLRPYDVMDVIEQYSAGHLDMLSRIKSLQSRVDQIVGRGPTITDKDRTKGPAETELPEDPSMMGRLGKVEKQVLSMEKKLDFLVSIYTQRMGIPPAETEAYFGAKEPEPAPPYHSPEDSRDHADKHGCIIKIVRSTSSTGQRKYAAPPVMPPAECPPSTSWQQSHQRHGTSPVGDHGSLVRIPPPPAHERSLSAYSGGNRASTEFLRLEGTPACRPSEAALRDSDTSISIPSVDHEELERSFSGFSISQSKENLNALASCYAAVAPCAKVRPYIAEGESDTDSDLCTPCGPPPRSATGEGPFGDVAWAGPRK
KCNQ2 pot baseline – further read-out of KCNQ2 pot, marked with its call; B-score; compound at 10 µM; measured here: initial fluorescence intensity artifact check;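 brightness before thallium and not channel activity; 0 = typical well and far values either way flag optical interference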
The depositor's hits bear a star. An excerpt; the hit share may differ from the screen's.

KCNQ2 pot	KCNQ2 pot baseline	structure
1.4	0.14	NS(=O)(=O)c1ccc(NN=C2CCCCC2)c([N+](=O)[O-])c1
0.56	-1.7	CC(=O)c1sc(NC(=O)c2ccco2)nc1-c1ccccc1
0.46	-1.1	O=C(CSc1ncnc2c1oc1ccccc12)NCc1ccc(F)cc1
0.29	0.26	Cc1cc(Cl)c(S(=O)(=O)N2CCN(c3ccc(F)cc3)CC2)cc1OCC(N)=O
1	-1.2	CCC1=Nc2cc(C(=O)NCc3cccnc3)ccc2Sc2ccc(C)cc21
0.81	1	Cc1ccc(S(=O)(=O)N2CCC(C)CC2)cc1[N+](=O)[O-]
0.24	-1.1	CCc1noc(C)c1C(=O)N1CCCSC1=Nc1ccccc1OC
0.06	0.2	O=C(NC1CCCCC1)c1ccc2c(c1)OCCO2
2.7	-1.4	COc1ccc(Cl)cc1NC(=O)CCCNC(=O)c1ccc(Cl)cc1
0.19	0.27	CCn1c(SCC(=O)N(C)C2CCS(=O)(=O)C2)nnc1-c1ccccc1 (configuration not stated)
0.81	-0.3	CCNc1nc(NCC)nc(N/N=C/c2ccc(O)c(OC)c2)n1
1.5	-1.4	CCCCc1nnc(NC(=O)c2ccc(-n3cncn3)c([N+](=O)[O-])c2)s1
0.16	-0.3	Nc1ccc2nn(-c3cccc4ccccc34)nc2c1
0.01	2.2	O=C1c2ccccc2N2C(=O)c3ccccc3C2N1O (configuration not stated)
0.07	-0.01	Cc1ccc(Cc2cnc(N3C(=N)SC(c4ccccc4)C3=O)s2)cc1 (configuration not stated)
2	-0.04	CCOC(=O)CSc1nc(C)c(C(C)=O)cc1C#N
0.47	-0.04	CC(=O)Nc1cc(C)c2nc(NC(C)=O)sc2c1
0.11	-0.08	COc1ccc(CNC(=O)CCCn2ccc3cc(S(=O)(=O)N4CCCC4)ccc32)cc1
9.8*	0.7*	CCCSC(=S)c1c(C)[nH]n(-c2ccccc2)c1=O
1.6	-1.6	CC(NC(=O)CSc1nc2c(cc1C#N)CN(C)CC2)c1ccccc1 (configuration not stated)

(cont.)
KCNQ2 pot	KCNQ2 pot baseline	structure
2.3	-3.3	CCN1CCN(S(=O)(=O)c2c(C)cc(C)cc2C)CC1
0.95	-1.4	CC1(C)NC(=O)N(CC(O)CN2CCCC2)C1=O (configuration not stated)
0.53	1.1	COc1ccccc1OCc1cc(C(=O)N2CCCC(OCc3cccnc3)C2)no1 (configuration not stated)
0.22	1.7	CCN(CC)C(=N)/C(C#N)=N/Nc1ccccc1
1.3	0.13	Cc1ccc(NC(=O)Nc2cccc(Cl)c2)c(C(=O)O)c1
0.07	0.55	COc1ccccc1N1CCN(C(=O)C2CCN(S(=O)(=O)c3ccc(F)cc3)CC2)CC1
0.77	0.18	O=C1CN(C(=O)COc2ccc(F)cc2Cl)c2ccccc2N1
0.73	-0.12	Cc1nn(Cc2ccccc2)c(C)c1NC(=O)CCCn1nc([N+](=O)[O-])c(Cl)c1C
7.4*	1.1*	Cn1nc(-c2ccccn2)nc2c(=O)n(C)c(=O)nc1-2
0.59	0.55	CC(=O)Nc1cccc(/C(C)=N/NS(=O)(=O)c2ccc(C)cc2)c1
2.6	0.07	CCCN(CCC)c1cc(Cl)nc(N)n1
0.01	1.3	COc1ccc(/C=N/N=C2/CC(C)(C)Cc3n[nH]c(=O)cc32)cc1
1.8	-0.23	CN1C=CC=C/C1=C1/N=C(c2ccccc2)OC1=O
0.01	-1.2	CCOc1ccccc1C(=O)N(Cc1cccs1)C1CCS(=O)(=O)C1 (configuration not stated)
1.5	-0.52	CCN(Cc1ccncc1)C(=S)Nc1c(C)cccc1C
0.04	0.58	CCOc1ccc2nc(SCC(=O)NC(=O)C(C)C)sc2c1
1.6	0.69	CC(=O)c1sc(NC(=O)c2cc(-c3ccccc3)nn2-c2ccccc2)nc1C
0.83	1.2	NS(=O)(=O)c1ccc(N/C=C/C(=O)c2ccc(Br)cc2)cc1
0.69	0.31	O=C(NCc1ccc(Cl)cc1)C1CCCN1C(=O)Nc1ccc(F)cc1 (configuration not stated)
1.9	-1.1	COC1=CC(=O)CC(C)C12Oc1cc(OC)cc(OC)c1C2=O (configuration not stated)

2 of the compounds above, field by field.
> CCN1CCN(S(=O)(=O)c2c(C)cc(C)cc2C)CC1
  KCNQ2 pot = 2.3	KCNQ2 pot baseline = -3.3
> CC1(C)NC(=O)N(CC(O)CN2CCCC2)C1=O (configuration not stated)
  KCNQ2 pot = 0.95	KCNQ2 pot baseline = -1.4

New compounds follow.
KCNQ2 pot	KCNQ2 pot baseline	structure
1.7	0.27	Fc1ccc(CNCc2ccc3c(c2)OCO3)cc1
1.6	-1.2	Cn1cc(C(=O)CCl)c2ccccc21
0.58	-0.45	Cc1ccc(NS(=O)(=O)c2ccc3[nH]c(=O)sc3c2)cc1
0.83	0.64	COC(=O)C1=C(C)N(CCCC(=O)O)C(=O)NC1c1ccc(Br)cc1 (configuration not stated)
1	0.22	COc1ccc(CNS(=O)(=O)CCNC(=O)c2ccccc2)cc1
0.1	-0.1	Cc1cc(SCc2ccccc2)nc(=O)[nH]1
0.01	2.1	CC1CN(C(=O)c2ccc(COc3ccccc3Cl)o2)CC(C)O1 (configuration not stated)
0.24	0.33	COc1cccc(NC(=O)CN(C)C(=O)CN2C(=O)NC3(CCCC3)C2=O)c1
0.28	-2	O=C1Nc2ccccc2C(=O)N2CCCCC12 (configuration not stated)
8.4*	-2.3*	O=C(Cc1ccccc1)Nn1c(-c2ccccc2)nc2ccccc2c1=O
1.1	0	Cc1ccccc1NS(=O)(=O)c1ccc(C(=O)NN2CCCCC2)cc1
0.11	-0.48	CCOC(=O)c1snc(C(=O)NC2CCCCC2)c1N
1.5	0.18	COc1ccc(-c2ccc(NCCC3=CCCCC3)nn2)cc1OC
0.37	-0.06	CSc1ccccc1NC(=O)CN(C)C(=O)c1cccc(S(=O)(=O)N(C)C)c1
1.1	0.45	Cc1ccc(C)c(N(CC(=O)NC2CCCCC2)C(=O)c2snc(C(N)=O)c2N)c1
1.4	-1.3	Oc1c(C2=NCCNC(C(F)(F)F)=C2)ccc2ccccc12
0.06	-0.87	CCCn1ncc(CN2CCC(n3nccc3NC(=O)c3ccccc3Cl)CC2)c1C
0.83	-0.97	O=C(N/N=C/c1cccs1)c1cc(-c2cccc3ccccc23)n[nH]1
0.82	0	Nc1ccc(-c2cn3cccnc3n2)cc1
0.57	-0.05	CN(C(=O)COC(=O)c1cccc(S(=O)(=O)N2CCCCCC2)c1)C1CCS(=O)(=O)C1 (configuration not stated)

Complete entries as entered above. Order of values: KCNQ2 pot	KCNQ2 pot baseline
O=C1CN(C(=O)COc2ccc(F)cc2Cl)c2ccccc2N1 is listed with 0.77	0.18
CCN(CC)C(=N)/C(C#N)=N/Nc1ccccc1 is listed with 0.22	1.7
CCN1CCN(S(=O)(=O)c2c(C)cc(C)cc2C)CC1 is listed with 2.3	-3.3
CCCN(CCC)c1cc(Cl)nc(N)n1 is listed with 2.6	0.07
CC(=O)c1sc(NC(=O)c2ccco2)nc1-c1ccccc1 is listed with 0.56	-1.7

(listing goes on)
KCNQ2 pot	KCNQ2 pot baseline	structure
1.8	-0.81	N#C/C(=N\Nc1ccc(S(=O)(=O)N2CCOCC2)cc1)C(N)=S
0.1	-0.35	O=C(O)C1CCc2sc3[nH]c(=S)n(-c4ccccc4)c(=O)c3c21 (configuration not stated)
1.6	-0.29	O=c1oc2ccccc2c(NCc2ccccc2F)c1[N+](=O)[O-]
0.29	0.45	COc1ccccc1OCCn1cc(C=O)c2ccccc21
1.2	1.7	CCOC(=O)c1nn2c(C(F)(F)F)cc(-c3ccc(OC)cc3)nc2c1Br
0.03	0.57	O=C1CC(N2CCN(c3ccccc3O)CC2)C(=O)N1Cc1ccccc1 (configuration not stated)
0.48	-0.82	Cc1ccc2nc(SCC(=O)Nc3ccc(F)cc3F)[nH]c2c1
1.1	-0.65	Cc1ccccc1C(=O)N1CCC(C(=O)Nc2cc(C(F)(F)F)ccc2N2CCCC2)CC1
1.3	-1.1	CC(=O)N(c1ccc(N(C(C)=O)S(=O)(=O)c2cccs2)cc1)S(=O)(=O)c1cccs1
0.03	-0.01	Cc1ccc(-c2nnc(SCC#CCOC(=O)c3ccco3)o2)cc1
0.55	1	Cc1ccc(-n2c(COc3ccccc3)n[nH]c2=S)cc1
0.02	1.1	CC(C)(C)c1nnc(SCC(=O)c2ccccc2)n(N)c1=O
0.42	-0.88	CC1Cc2ccccc2N1C(=O)Cn1cnc2ccccc21 (configuration not stated)
0.64	-0.53	O=C1NC(=O)/C(=C\c2ccc(OCc3cccc([N+](=O)[O-])c3)cc2)N1
0.73	-1	CCCCC1=NN2CCS(=O)(=O)N=C2S1
1.1	-0.32	COc1ccc(N2CCN(S(=O)(=O)CCNC(=O)c3ccc(Br)o3)CC2)cc1
1.1	2.6	COc1ccc(Cl)cc1S(=O)(=O)Nc1cccc(C(=O)O)c1
0.36	-1.3	Cc1nc2c(n1C1CCCCC1)C(=O)c1ccccc1C2=O
0.64	-0.28	CCc1c(C)nc2ncnn2c1Nc1ccc(C)cc1
1.2	1.3	CCOC(=O)c1c(-c2ccc(-c3ccccc3)cc2)csc1NC(=O)CCN1CCOCC1

Next records.
KCNQ2 pot	KCNQ2 pot baseline	structure
0.39	-0.28	CN(C)CCNC(=O)C(=O)C1C(=O)Nc2ccccc21 (configuration not stated)
0.04	-2.1	C=CCNc1nc(-c2cccc(OC)c2O)nc2ccccc12
9.3*	0.59*	CCCc1nc2sc3c(c2c(=O)n1NC(=O)CCC(=O)OC)CCCC3
0.03	0.2	CC(/C=C/c1ccccc1)=N/NC(=O)CNC(=O)c1ccc2c(c1)OCO2
2.1	0.08	CC1=CC(C)(C)N(C(=O)CN2C(=O)CCC2=O)c2ccccc21
0.17	-0.91	CC1CN(Cc2ccccc2)c2nc3c(c(=O)[nH]c(=O)n3C)n2C1 (configuration not stated)
0.9	-0.76	CCc1ccc(N(C(=O)c2csnn2)C(C(=O)NC2CCCC2)c2cccnc2)cc1 (configuration not stated)
0.09	-0.33	O=C(Cc1ccc(Cl)cc1)NCC(=O)N1CCCCC1
0.76	-0.04	CN(C)S(=O)(=O)c1ccc(Cl)c(NC(=O)c2ccncc2)c1
0.36	-1.4	COCCNC(=O)c1ccc(Cl)c(Cl)c1
0.61	-0.52	CCN(CC)CCNS(=O)(=O)c1ccc2c3c(cccc13)C(=O)N2
0.52	-0.27	Cc1cccc(S(=O)(=O)NNC(=O)c2sc(C)nc2C)c1
0.75	-0.94	O=S1(=O)CCOCCCN1Cc1cccc(F)c1
0.45	0	COc1cccc(N2CCN(Cc3cccnc3)CC2)c1
0.66	-0.53	CC(C)Cn1c(CCCNC(=O)c2ccc(F)cc2)nc2ccccc21
0.45	-0.48	COc1ccccc1NC(=O)c1cnc2c(-c3ccccc3)c(C)nn2c1C
0.15	-0.23	Cc1ccc(CNC(=O)c2nnc(CS(=O)(=O)c3ccccc3)o2)cc1
0.23	-1.9	Cn1ccnc1C(O)(c1ccccc1)c1nccn1C
0.47	0	CCOc1ccccc1-c1nc(SCC(=O)O)n[nH]1
0.43	-2.1	COc1cccc(NC(=O)CC2C(=O)NCCN2C(=S)Nc2ccc(F)cc2)c1 (configuration not stated)

Reformatted: entries from further up.
Screens in order – KCNQ2 pot	KCNQ2 pot baseline
CC(/C=C/c1ccccc1)=N/NC(=O)CNC(=O)c1ccc2c(c1)OCO2
→ 0.03	0.2
CCOc1ccccc1-c1nc(SCC(=O)O)n[nH]1
→ 0.47	0
CN(C)S(=O)(=O)c1ccc(Cl)c(NC(=O)c2ccncc2)c1
→ 0.76	-0.04
CCc1ccc(N(C(=O)c2csnn2)C(C(=O)NC2CCCC2)c2cccnc2)cc1 (configuration not stated)
→ 0.9	-0.76
O=C(Cc1ccc(Cl)cc1)NCC(=O)N1CCCCC1
→ 0.09	-0.33

New compounds follow
KCNQ2 pot	KCNQ2 pot baseline	structure
0.8	0.06	CNC(=S)Nc1cc(C(F)(F)F)ccc1Cl
0.86	0.7	Cn1c(=NC(=O)CSCC(=O)N2CCOCC2)sc2ccccc21
0.46	1.6	COC(=O)c1c(C#N)c(N)nc2c1CCCC2
0.02	0.65	C/C(=N\Nc1ccc(C#N)cc1[N+](=O)[O-])c1ccc(C)o1
0.11	-1	CC(C)CCOCC(=O)Oc1ccccc1C(=O)O
0.03	-0.54	NNc1nc(-c2ccccc2)cc(-c2ccccc2)n1
0.42	-1.2	COc1ccc(C(=O)NC(C)c2nnc(SCC(=O)Nc3nc(C)cs3)n2C)cc1 (configuration not stated)
0.06	-2.5	O=C(N/N=C/c1cccs1)c1ccc2ncccc2c1
0.27	0.93	COc1ccc(C(=O)c2cc3c(cc2[N+](=O)[O-])OCCO3)cc1
0.38	-0.75	Cc1ccc(CNS(=O)(=O)c2ccc(-n3cnnn3)c(C)c2)cc1
5.7*	0*	CC(NC(=O)C1CCCCC1)c1ccc2c(c1)OCCO2 (configuration not stated)
0.3	0.7	COc1ccc(Cc2noc(CN3CCNC(=O)CC3)n2)cc1OC
0.4	0.21	C(=N\Nc1nc(-c2ccccc2)cs1)/c1cccs1
0.96	-4	COc1ccc(CCNS(=O)(=O)c2cccs2)cc1
2.1	-1.4	Cc1ccc(S(=O)(=O)CCC(=O)NCc2ccccc2)cc1
0.92	0.13	O=C(CC1C(=O)NCCN1C(=O)c1ccc(F)cc1)OCc1ccccc1 (configuration not stated)
0.63	0.58	Cc1cc2c(=O)n(C)c(SCC(=O)Nc3cccc(F)c3)nc2s1
0.63	-1.5	COC(=O)Cc1ccc(NC(=S)NC(C)(C)C)cc1
0.08	-0.56	Cc1nn(-c2cccc(Cl)c2)c(Cl)c1/C=N/NC(=O)c1cccnc1
0.07	-1.4	O=C1CC(c2cccc(Cl)c2)CC(O)=C1C=NCCCO (configuration not stated)
1.3	0.53	CCCCSc1ncc(C(=O)OCC)c(N)n1
0.02	0.72	O=C(NCCOC(=O)c1ccccc1)c1ccc([N+](=O)[O-])cc1
1	0	COc1ccc(CNC(=O)CCS(=O)(=O)c2ccc3c(c2)CCN3C(C)=O)cc1
